# High-throughput results as filed in PubChem.
# Mtb H37Rv: Mycobacterium tuberculosis H37Rv growth inhibition, cell based, confirmatory dose response (AID 1949); 100,000 compounds, 1.6% hits; most inactive calls were filed without a number and no value below 0 was filed; inhibition, % at 10 µg/mL; hits with a dose series show IC50 in µg/mL;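 active = confirmed in a dose series; inconclusive = about 50% or more but not retested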;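 note: bacteria grown 7 days with compound before Alamar blue readout; 0% = untreated bacteria and 100% = reference antibiotic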
# An asterisk follows results filed as active; i = inactive; ? = inconclusive. The list is partial (hit frequency here may not be typical).
SMILES,Mtb H37Rv
Cc1c(NC(=S)NC(=O)c2ccc(COc3ccccc3)cc2)cccc1C(=O)O,0%
CC(C)OC(=O)C(C(=O)C(F)(F)F)c1cc(NS(=O)(=O)c2ccc(Cl)c([N+](=O)[O-])c2)ccc1O (stereo not drawn),1%
COc1ccc(C)cc1S(=O)(=O)n1nnc2ccccc21,i
COc1ccc(NC(=O)C(C)Sc2nc(-c3ccccc3)cc(C(F)(F)F)n2)c(C)c1 (stereo not drawn),i
Cc1cc(Cl)c(S(=O)(=O)N2CCc3ccccc32)cc1OCC(=O)NC1CCCCC1,2%
COCCSc1nnc(NC(=O)c2cc(-c3ccccc3)nc3ccccc23)s1,4%
CC(Nc1n[nH]c(=O)[nH]c1=O)C(=O)N/N=C/c1ccccc1F (stereo not drawn),1%
CC(Oc1cccc(NC(=O)c2ccccc2)c1)C(=O)c1ccccc1 (stereo not drawn),3%
CCCC(=O)N(c1ccc(OC)cc1)S(=O)(=O)c1ccccc1,5%
CCn1c(=N)c(C#N)cc2c(=O)n3cc(C)ccc3nc21,i
O=C(Nc1nc(N2C(=O)c3ccccc3C2=O)n(-c2ccccc2)n1)c1cccc([N+](=O)[O-])c1,28%
O=[N+]([O-])c1ccc(Cn2cc(Br)cn2)cc1,1%
O=C(c1cccnc1)N1N=C(c2ccccc2)CC1(O)C(F)(F)C(F)(F)C(F)(F)F (stereo not drawn),i
CCOc1ccccc1NC(=O)c1c(NC(=O)c2ccccc2F)sc2c1CCCCC2,i
CCC(Oc1ccc2c(C)cc(=O)oc2c1)C(=O)c1ccccc1 (stereo not drawn),7%
CCNS(=O)(=O)c1ccc(NC(=O)C(=O)OCC)cc1,i
CC(=O)N(C)c1ccc(NC(=O)c2ccc(C(C)(C)C)c(Br)c2)cc1,31%
COc1cc(C(=O)Nc2ccccc2C(C)(C)C)cc(OC)c1OC,i
COc1ccc(CSCCc2n[nH]c(=S)n2-c2ccccc2)cc1,1%
CCOCCCNS(=O)(=O)c1ccc(NC(=O)c2ccccc2)cc1,i
COc1ccc(NC(=S)N2CCCC(C(=O)N3CCCC3)C2)cc1 (stereo not drawn),i
COc1ccc(N2CCN(C(=O)c3ccc4c(c3)OCO4)CC2)cc1,i
O=C(NNC(=O)C12CC3CC(C1)CC(c1ccccc1)(C3)C2)c1ccncc1,i
CC1CCCN(CCCCOc2ccc(Br)cc2Cl)C1 (stereo not drawn),36%
O=[N+]([O-])c1ccc(N/C(=N\S(=O)(=O)c2ccccc2)c2ccc(Cl)cc2)cc1,1%
Cc1ccc(-n2ncc3c(N4CC(C)OC(C)C4)ncnc32)c(C)c1 (stereo not drawn),i
CCOc1ccc(OCc2cccc(C(=O)N3CCCC3)c2)cc1,i
Cc1cc(C)c(S(=O)(=O)Nc2ccc(S(=O)(=O)Nc3cccc(Cl)c3Cl)cc2)c(C)c1,i
COc1ccc(OC)c(NC(=O)CSc2nc(-c3ccccc3)cc(=O)[nH]2)c1,i
COc1ccc(C2(CNC(=O)CC(c3ccccc3)c3ccccc3)CCOCC2)cc1,i
Cc1cn2c(-c3cccnc3)nnc2s1,i
O=C(NC(Cc1ccccc1)c1nc2ccccc2[nH]1)c1cc(F)c(F)cc1Cl (stereo not drawn),i
C=CCc1ccccc1OCCNCCN,9%
O=C(c1cccs1)N1CCN(c2ccc([N+](=O)[O-])c(N3CCCC3)c2)CC1,0%
CC(C)c1nnc(NS(=O)(=O)Cc2ccccc2)s1,i
CC(=O)c1ccc2[nH]c3c(c2c1)CCCC3,i
CCn1c(CNC(=O)c2ccc(Br)cc2)nnc1SCC(=O)Nc1ccc(OC)cc1,i
CCOc1ccc(-c2csc(NC(=O)C3CCCO3)n2)cc1 (stereo not drawn),i
C=CCn1c(SCC(=O)O)nnc1-c1sc2ccccc2c1Cl,i
CCn1c(SCC(=O)Nc2c(F)cc(F)cc2Br)nnc1C(C)NC(=O)c1ccccc1 (stereo not drawn),0%
NC(=O)c1ccccc1NC(=O)COc1ccc2oc3c(c2c1)CCCC3,i
Cc1c(CC(=O)O)c(=O)oc2c(C)c(OCc3ccc(F)cc3Cl)ccc12,i
O=c1oc2ccccc2n1CCOc1ccc(Br)cc1,4%
CCCC(=O)Nc1ccccc1NC(=O)c1cc(C)cc(C)c1,2%
Cc1c(Br)ccc(NC(=O)CCC2CCCCC2)c1C,0%
Cc1cn(C/C=C\c2ccccc2)c(=O)n(C/C=C/c2ccccc2)c1=O,2%
O=C(CC1C(=O)Nc2ccccc2N1S(=O)(=O)c1cccs1)Nc1cccc(Cl)c1 (stereo not drawn),i
O=C(Cn1cc(C(=O)c2cccs2)c2ccccc21)Nc1ccccc1C(F)(F)F,i
O=C(Nc1cccc(F)c1)N1CCN(C/C=C/c2ccccc2)CC1,2%
C=Cc1ccc(COc2cc(C)cc3oc(=O)cc(CC)c23)cc1,i
NC(=O)C1CCN(C(=O)CN(c2ccccc2)S(=O)(=O)c2ccccc2[N+](=O)[O-])CC1,i
CCOC(=O)CN1C(=O)CN(c2ccc(C)cc2)C1=O,0%
O=C(Nc1nnc(CSCc2ccccc2F)s1)C1CCCCC1,i
COC(=O)C1=CN(C2CCCC2)C=C(C(=O)OC)C1c1ccc(OC)c(O)c1,i
O=C(NCC1CCCO1)c1cnn2c(C(F)F)cc(C3CC3)nc12 (stereo not drawn),7%
O=C1CCCc2c1n(CC(O)CO)c1ccccc21 (stereo not drawn),0%
O=C(CSc1nnnn1Cc1ccccc1)Nc1ccccc1,i
Cn1c(/C=C(\C#N)C(N)=S)ccc1-c1ccc(Br)cc1,i
O=C(CCN1C(=O)C2C3C=CC(C4CC34)C2C1=O)Oc1ccc2ccccc2c1 (stereo not drawn),i
O=C(Oc1ccccc1[N+](=O)[O-])N1CCOCC1,4%

# Some of these compounds in order of SMILES length, highest first.
SMILES,Mtb H37Rv
NC(=O)C1CCN(C(=O)CN(c2ccccc2)S(=O)(=O)c2ccccc2[N+](=O)[O-])CC1,i
O=[N+]([O-])c1ccc(N/C(=N\S(=O)(=O)c2ccccc2)c2ccc(Cl)cc2)cc1,1%
O=C(c1cccnc1)N1N=C(c2ccccc2)CC1(O)C(F)(F)C(F)(F)C(F)(F)F (stereo not drawn),i
Cc1cc(Cl)c(S(=O)(=O)N2CCc3ccccc32)cc1OCC(=O)NC1CCCCC1,2%
CCn1c(CNC(=O)c2ccc(Br)cc2)nnc1SCC(=O)Nc1ccc(OC)cc1,i
CCOc1ccccc1NC(=O)c1c(NC(=O)c2ccccc2F)sc2c1CCCCC2,i
COCCSc1nnc(NC(=O)c2cc(-c3ccccc3)nc3ccccc23)s1,4%
O=C(Nc1cccc(F)c1)N1CCN(C/C=C/c2ccccc2)CC1,2%
CCC(Oc1ccc2c(C)cc(=O)oc2c1)C(=O)c1ccccc1 (stereo not drawn),7%
CCn1c(=N)c(C#N)cc2c(=O)n3cc(C)ccc3nc21,i
C=CCn1c(SCC(=O)O)nnc1-c1sc2ccccc2c1Cl,i
CCNS(=O)(=O)c1ccc(NC(=O)C(=O)OCC)cc1,i
CCOC(=O)CN1C(=O)CN(c2ccc(C)cc2)C1=O,0%
O=[N+]([O-])c1ccc(Cn2cc(Br)cn2)cc1,1%
CC(C)c1nnc(NS(=O)(=O)Cc2ccccc2)s1,i
O=C(CSc1nnnn1Cc1ccccc1)Nc1ccccc1,i
O=C1CCCc2c1n(CC(O)CO)c1ccccc21 (stereo not drawn),0%

# Sorted by formula weight (falling): part of the list above.
SMILES,Mtb H37Rv
O=C(Cn1cc(C(=O)c2cccs2)c2ccccc21)Nc1ccccc1C(F)(F)F,i
COC(=O)C1=CN(C2CCCC2)C=C(C(=O)OC)C1c1ccc(OC)c(O)c1,i
O=C(Nc1cccc(F)c1)N1CCN(C/C=C/c2ccccc2)CC1,2%

# Remaining list, next part
SMILES,Mtb H37Rv
CCOC(=O)CCCNC(=O)CCNC(=O)c1ccc(OC(C)C)cc1,i
COc1ccc(S(=O)(=O)Nc2ccccc2NS(=O)(=O)c2ccc(OC)cc2)cc1,i
Cc1cc(C)c2c(c1)C1(C(=O)N2)C(C#N)=C(N)Oc2n[nH]c(-c3ccccc3)c21 (stereo not drawn),1%
O=C(Oc1ccc2ccccc2c1Br)N1CCCCCC1,18%
CCSc1cc(C2C(C#N)=C(N)Oc3n[nH]c(C)c32)c(C)o1 (stereo not drawn),i
CCOC(=O)C1=CN(C(C)C)C=C(C(=O)OCC)C1c1cc(Br)ccc1OC,i
COc1ccccc1N1CCN(C(=O)C2CCN(C(=O)c3ccccc3Cl)CC2)CC1,i
COc1ccccc1CNC(=O)c1sc2ccccc2c1Cl,4%
c1ccc(-c2cn3c4ccccc4n(CCN4CCOCC4)c3n2)cc1,i
Cc1ccc(CNC(=O)CN(c2ccc(F)cc2)S(C)(=O)=O)cc1,i
CCc1cccc(NS(=O)(=O)c2ccccc2[N+](=O)[O-])c1,i
CC(C(=O)N1CCN(Cc2ccccc2)CC1)N(c1ccc(Oc2ccccc2)cc1)S(C)(=O)=O (stereo not drawn),i
O=C(NCc1ccc(F)cc1)c1ccc(C(=O)NCc2ccc(F)cc2)nc1,i
NC(=O)Cc1nc(-c2cc3ccccc3oc2=O)cs1,i
Cc1nn(-c2ccc(F)cc2)c(C)c1-c1ccc(Cl)c(Cl)c1,1%
CN1C2C=C(N(C(=O)c3ccc(Cl)cc3)c3ccccc3)CC1CC2 (stereo not drawn),i
OC(COc1ccccc1)COc1ccccc1,22%
CCOc1ccc(NC(=O)CSc2nnc(-c3ccncc3)n2-c2ccccc2)cc1,i
O=C(NCc1cccnc1)c1ccc(-c2cc(Cl)ccc2Cl)o1,i
COC(=O)c1ccc(C2CC(=O)Nc3c2cc(Br)c2ccccc32)cc1 (stereo not drawn),i
CC1=C(C(=O)OC(C)C)C(c2ccccc2C(F)(F)F)CC(=O)N1 (stereo not drawn),i
COc1ccc(OC(C)C(=O)Nc2cc(C)ccc2OC)cc1 (stereo not drawn),i
Cc1ccc2nc(Nc3nc4c(c(=O)[nH]3)CCC4)nc(C)c2c1,i
NC(=O)C1CCN(CCCNC(=S)Nc2ccccc2)CC1,0%
O=S(=O)(Nc1cccc(Cl)c1)c1cccc(F)c1,i
Cc1ccc(O)c(-c2cc(-c3ccccc3C)[nH]n2)c1,i
Cc1nnc(SCC(=O)Nc2cc(C(=O)O)cc(C(=O)O)c2)s1,i
COc1ccc(S(=O)(=O)N(CC(=O)Nc2ccc(C(C)C)cc2)c2ccccc2OC)cc1,i
O=[N+]([O-])c1ccn(Cc2ccccc2Cl)n1,3%
C=C(C)COc1ccc2c(=O)c(-c3ccccc3OC)c(C)oc2c1,5%
COc1ccc(CNC(=O)c2cc(-c3cccc(OC)c3)nc3ccccc23)cc1,i
CCCNS(=O)(=O)c1ccc(OC)c(Br)c1,i
O=C(NCc1ccc2c(c1)OCO2)c1cc(-c2ccccc2)on1,i
NS(=O)(=O)c1ccc(NC(=O)CN(Cc2ccccc2)Cc2ccccc2)cc1,i
CCOC(=O)c1sc(N2C(=O)c3ccccc3C2=O)c(C#N)c1C,4%
O=C1CC(c2ccc(Cl)cc2)CC2=C1C(c1ccc(C(F)(F)F)cc1)Nc1ccccc1N2 (stereo not drawn),2.1µg/mL*
COc1ccc(CN2C(=O)C(O)(CC(=O)c3cccc(-n4cccc4)c3)c3ccccc32)cc1OC (stereo not drawn),i
c1ccc(-c2ncc(CSc3nc4ccccc4o3)o2)cc1,14%
CCOC(=O)Nc1ccc2c(c1)N(C(=O)CN(C)C)c1ccccc1S2,i
CC(=O)Nc1ccc(OCC(O)CN2CCN(c3ccc(C)c(Cl)c3)CC2)cc1 (stereo not drawn),i
CCOc1ccccc1NC(=S)Nc1cnn(Cc2ccc(F)cc2Cl)c1,0%
COc1ccc(-c2c3c(=O)n(C)c(=O)n(C)c3cn2Cc2ccccc2)cc1,i
COc1ccc(NC(=S)NC(=O)c2ccc(OCc3ccc(Cl)cc3)c(OC)c2)c(OC)c1,4%
c1ccc(OCc2nnc(SCc3nc4ccccc4[nH]3)n2-c2ccccc2)cc1,1%
Cc1[nH]n(S(=O)(=O)c2ccccc2)c(=O)c1N=Nc1cccc(Cl)c1,6%
COc1cccc(C(=O)COc2ccc3ccc(=O)oc3c2)c1,i
CCSc1ccccc1C(=O)Nc1ccc(I)cc1,i
O=C(Nc1cccc(S(=O)(=O)N2CCCC2)c1)c1cc(-n2cnnc2)ccc1Cl,i
O=C(CCCOc1ccc(Br)cc1)Nc1ncc(Cc2ccc(F)cc2)s1,i
O=C(NCc1ccccc1)c1ccccc1NS(=O)(=O)c1ccccc1,i
Nc1nnc(SCC(=O)Nc2ccccc2C(=O)c2ccccc2)s1,i
O=c1c2c(-c3ccccc3)csc2nc2c3ccccc3c3nnnn3n12,i
COc1ccc(-c2cc(C(=O)Nc3cccc4ncccc34)c3ccccc3n2)cc1,i
COc1ccc(Cl)cc1-c1nc(-c2ccccc2Cl)no1,1%
COc1cccc(N2C(=O)CC(N3CCN(CCN=CC4=C(O)CC(C)(C)CC4=O)CC3)C2=O)c1 (stereo not drawn),i
CC(C)C(NC(=O)c1ccc(F)cc1)C(=O)O (stereo not drawn),i
CN(c1ccc(C(=O)N2CCOCC2)cc1)S(C)(=O)=O,1%
CS(=O)(=O)N(CC(=O)N1CCN(Cc2ccccc2)CC1)c1cccc([N+](=O)[O-])c1,i
S=C(NCc1cccnc1)Nc1ccc(Nc2ccccc2)cc1,1%
O=C(N1CCN(c2ccccn2)CC1)C(O)(c1ccccc1)c1ccccc1,1%
# Carrying on.
SMILES,Mtb H37Rv
O=C(O)CCSc1c[nH]c2ccccc12,i
CCC1(C)Cc2nc(N)c(C#N)cc2CO1 (stereo not drawn),i
CCCn1c(NCCCO)nc2ccccc21,i
COc1ccc(C(=O)Oc2ccc(C(=O)OCc3ccccc3)cc2)cc1OC,1.4µg/mL*
COc1ccccc1-c1cn(S(=O)(=O)c2ccc(F)cc2)nc1N,i
C=CCNc1sc(C(=O)C(C)(C)C)c(N)c1C#N,i
CCc1cc2c(=O)c(Oc3ccc(F)cc3)c(C(F)(F)F)oc2cc1CC(=O)OC,i
CSc1ncnc2sc(-c3ccccc3)cc12,i
COc1ccc(C(=O)COc2ccc3c(=O)c(-c4ccccc4OC)c(C)oc3c2)cc1,?
O=C(NCCN1CCCC1)C1COc2ccccc2O1 (stereo not drawn),i
CCOc1cc(C(=O)Nc2ccc(S(=O)(=O)N3CCCC3)cc2)cc(OCC)c1OCC,i
